# Assay outcomes from PubChem BioAssay.
# MT1-MMP act inh = blockers of MT1-MMP proenzyme processing, primary screen, HT1080 RFP-PRO-GFP cells, GFP/RFP fluorescence. hit rate 0.061% among 360,000. Matrix metalloproteinase-14 (Homo sapiens), P50281. GFP/RFP ratio fluorescence, overnight; percent of plate control window, DMSO zero. GFP/RFP ratio change, % at 20 µM;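 active = GFP/RFP ratio change of at least 30% with cell ATP level not reduced by more than half and red fluorescence within 50% of control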; also: strong numbers were not always called active
#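 system = RFP-PRO-GFP reporter HT1080 cells | dosing = 20 µM single dose, 1% DMSO | timing = overnight cell settling, then overnight compound exposure, 37 °C, 5% CO2 | read-out basis = GFP/RFP fluorescence ratio | controls = DMSO and RFP-L50D-GFP cell wells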
# Rce1 inh = yeast Rce1p protease inhibitors, primary screen, biochemical, fluorescence, cell-free homogeneous; calls only; hit rate 0.27% among 290,000; yeast membranes, quenched prenylated peptide cleavage fluorescence; AID 2563, 2010; CAAX prenyl protease 2 (Saccharomyces cerevisiae (strain ATCC 204508 / S288c)), Q03530;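 active = fall in fluorescence gain of 50% or more versus controls, with final raw signal at or below 3038400; inconclusive = same 50% fall but final raw signal above 3038400; inactive = fall in fluorescence gain under 50%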;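 also: plate controls were neutral control wells for no effect and wells lacking membranes for full effect; tested at 10 µM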
# Target sequence (Q03530 whole entry, looked up): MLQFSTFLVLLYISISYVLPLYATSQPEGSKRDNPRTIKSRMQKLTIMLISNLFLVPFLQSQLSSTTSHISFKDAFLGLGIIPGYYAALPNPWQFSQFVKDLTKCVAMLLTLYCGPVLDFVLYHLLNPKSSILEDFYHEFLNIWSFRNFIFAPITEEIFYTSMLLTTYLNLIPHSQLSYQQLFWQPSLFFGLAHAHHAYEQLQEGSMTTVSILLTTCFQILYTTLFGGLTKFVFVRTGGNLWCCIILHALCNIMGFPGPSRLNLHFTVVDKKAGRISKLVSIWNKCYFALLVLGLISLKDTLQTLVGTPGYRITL
# HIV Env fusion = inhibitors of HIV-1 Env-driven cell-cell fusion, primary screen, HeLa-JRFL effector, CEM21 target cells, luciferase | AID 651610, 2012 | inhibition, % at 12.3 µM | hit rate 1.1% among 360,000;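 active = mean replicate inhibition score of at least 50 and every replicate individually at or above 50; inconclusive = only one of the two criteria met; inactive = mean below 50 and not all replicates reaching 50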;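 also: 0% = plate neutral controls and 100% = maraviroc near 300 nM; one replicate is shown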
# PABP polyA inh = PABP poly(A) RNA binding inhibitors, primary screen, biochemical, fluorescence polarization, uHTS; inhibition, % at 35 µM; hit rate 1% among 290,000;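 active = 50% or more with normal probe brightness, or confirmed in later tests; inconclusive = above 50% with abnormal brightness, or retests that disagree; inactive = below 50% or failed in later tests; about a fifth of its hits are not listed in these tables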;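 also: calls also rest on retests at 20 µM and on dose response follow-up; controls were probe without protein and protein plus probe with vehicle; some compounds called inactive have numbers as strong as hits; many hits fall short of the cut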
# Target sequence (P11940 whole entry, looked up): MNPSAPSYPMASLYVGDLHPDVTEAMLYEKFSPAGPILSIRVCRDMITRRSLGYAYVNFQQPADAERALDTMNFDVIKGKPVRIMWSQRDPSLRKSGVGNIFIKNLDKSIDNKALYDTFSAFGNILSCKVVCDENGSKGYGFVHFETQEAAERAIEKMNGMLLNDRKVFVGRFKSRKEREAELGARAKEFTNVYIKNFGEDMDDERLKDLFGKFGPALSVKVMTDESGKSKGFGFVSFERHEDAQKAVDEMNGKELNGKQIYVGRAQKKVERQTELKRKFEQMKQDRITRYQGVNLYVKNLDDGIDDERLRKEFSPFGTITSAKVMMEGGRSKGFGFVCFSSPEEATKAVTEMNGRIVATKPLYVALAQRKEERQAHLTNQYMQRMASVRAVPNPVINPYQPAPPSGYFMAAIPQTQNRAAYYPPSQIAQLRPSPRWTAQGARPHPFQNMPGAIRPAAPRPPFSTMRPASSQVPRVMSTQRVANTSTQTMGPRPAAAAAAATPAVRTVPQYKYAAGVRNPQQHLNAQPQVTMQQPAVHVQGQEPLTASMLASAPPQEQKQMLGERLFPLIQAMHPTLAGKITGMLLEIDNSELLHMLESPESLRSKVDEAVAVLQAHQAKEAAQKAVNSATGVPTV
# CSC inhib = cancer stem cell viability inhibitors, primary screen, luminescence. cancer stem cell-like cells viability. inhibition, % at 7.5 µM. hit rate 1.1% among 300,000. AID 2717, 2010;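 active = mean at 75% or more and at least half the replicates too; inconclusive = mean and replicates disagree; tested in HMLE shEcad cells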;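 also: 0% = median of negative and 100% = median of positive control wells; the first replicate is given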
# eIF4H FP inh = human eIF4H binding inhibitors, primary screen, translation initiation inhibitor project, biochemical, uHTS, fluorescence polarization; Eukaryotic translation initiation factor 4H (Homo sapiens), Q15056; eIF4H fluorescence polarization binding assay; inhibition, % at 35 µM; hit rate 0.94% among 290,000; AID 2012, 2009;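 active = 50% or more with normal probe brightness, or confirmed in later tests; inconclusive = above 50% with abnormal brightness, or retests that disagree; inactive = below 50% or failed in later tests; about a fifth of its hits are not listed in these tables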;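 also: calls also rest on retests at 20 µM and on dose response follow-up; 0% = protein and probe with vehicle and 100% = probe without protein; strong numbers were not always called active; many hits fall short of the cut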
# UUG fidelity = modulators of yeast start codon fidelity, primary screen, whole organism, S. cerevisiae, single point, plate reader; S. cerevisiae UUG-firefly luciferase reporter, luminescence/redox ratio; hit rate 0.13% among 350,000; activity score, % at 18.7 µM; AID 602363, 2012;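 active = replicate mean at a twofold rise or more, about +100% in these data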;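 also: firefly luciferase made from a UUG start codon reports start codon fidelity; reporter light over untreated wells divided by growth signal over untreated wells; some hits fall short of that in this replicate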
# eIF4H FP inh retest = also measured in eIF4H FP inh; calls as there; inhibition, %; compound at 20 µM; confirmation average;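 mean of two retest wells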
# PABP polyA inh retest = recorded beside PABP polyA inh, whose call it bears; inhibition, %; compound at 20 µM; confirmation repeats;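 mean of two retest wells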
# MT1-MMP act inh RFP = recorded beside MT1-MMP act inh, whose call it bears; RFP signal change, %; measured here: RFP expression control read;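 0 = vehicle wells; hits needed this value within 50% of zero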
# The depositor's hits bear a star; i = inactive; ? = inconclusive; · = no result given; & = joins results of further samples. This is a subset; rates above refer to the full screens.
SMILES,MT1-MMP act inh,MT1-MMP act inh RFP,Rce1 inh,HIV Env fusion,PABP polyA inh,CSC inhib,eIF4H FP inh,UUG fidelity,others
O=C(Cc1ccc(Cl)cc1)NC1CCCN(Cc2ccccc2F)C1 (configuration not stated),5,-3,i,13,4,-19,-6,-6,
CCOc1cc(C(=O)NC(C)COC)cc(OCC)c1OCC (configuration not stated),-3,1,i,-14,4,-17,-2,-7,
Cc1nn(CC(=O)NC(C)c2ccccc2)c(C)c1[N+](=O)[O-] (configuration not stated),-3,-2,i,6,2,-10,3,·,
COc1cccc(CNC(=O)c2ccc(NC(=O)C3=CSCCO3)cc2)c1,9,2,i,-10,3,-11,3,-19,
COc1cccc(C2SCC(=O)N2c2cccc(C)c2)c1OC (configuration not stated),-2,0,i,-9,1,0,19,-1,
CCC(C)(C)n1nnnc1C(C(C)C)N1CCSCC1 (configuration not stated),1,6,·,·,15,-13,-2,0,
C[C@H](NC(=O)OC(C)(C)C)c1nnc(SCC(N)=O)o1,-2,2,i,-57,0,-2,-2,-21,
Cc1ccc(NS(=O)(=O)c2ccccc2[N+](=O)[O-])cc1C,0,2,i,25,6,·,10,·,
Cc1ccc(Sc2nc(-c3ccccc3)ccc2C#N)cc1,-1,-1,i,-14,-4,-3,-2,-1,
O=C(O)C1CC(Br)C(Br)CC1C(=O)O (configuration not stated),0,1,·,-11,·,·,·,-18,
CC(C)(C)c1nnc(NC(=O)c2ccc3c(c2)OCO3)s1,4,2,i,-48,-3,-7,2,-7,
CCOc1ccccc1C(=O)NCC(=O)OCCOc1cccc(Cl)c1,1,1,i,-1,-4,-10,-4,2,
CCOc1ccc(/C=C/C2=NNC(=O)CC2)cc1,6,9,i,28,4,12,4,·,
COc1ccc(C(=O)COC(=O)CNC(=O)c2cccc(OC(F)F)c2)cc1,-2,3,i,-6,?,-7,-4,·,
CCC(CC)C(=O)c1c[nH]c(C(=O)N2CCN(c3ccc(OC)cc3)CC2)c1,0,-2,i,-4,3,-8,-3,-7,
O=C(NCc1ccco1)C(c1cccs1)N(C(=O)C1COc2ccccc2O1)c1cccc(O)c1 (configuration not stated),-12,-9,i,·,2,-14,-8,-25,
CN(Cc1c(C(=O)N/N=C/c2cccs2)nnn1-c1nonc1N)c1ccccc1,-1,1,i,-7,2,-2,2,-8,
CCc1ccc(/C=C/c2c([N+](=O)[O-])c(=O)n(C)c(=O)n2C)cc1,-13,-13,i,-5,-2,17,6,-15,
O=C(CNS(=O)(=O)c1ccccc1Br)OCC(=O)N1CCc2ccccc21,1,-2,i,-196,-1,-1,-4,-15,
CCC(=O)N1CCc2cc(S(=O)(=O)Nc3ccccc3C)ccc21,1,-1,i,13,8,-4,10,-3,
CC1CCN(CCCn2c(=S)[nH]c3ccc(N4CCOCC4)cc3c2=O)CC1,-1,0,i,-4,10,6,3,-12,
CCCCOC(=O)Nc1ccc(S(=O)(=O)Nc2ccc([N+](=O)[O-])cc2)cc1,7,-4,i,-12,1.3*,6,90,-17,eIF4H FP inh retest=46;PABP polyA inh retest=54*
COc1ccc(NC(=O)CSc2ccc3c4c(cccc24)C(=O)c2ccccc2-3)cc1,-208,9,i,-136,?,-21,?,-17,
CCOc1ccc(-c2cc(C(=O)OC)nc3c2c(=O)n(C)c(=O)n3C)cc1,0,4,i,8,-3,6,4,·,
CCOc1ccccc1OCC(=O)Oc1ccc(C)c(C)c1,2,6,i,-13,-7,-11,-1,-26,
CCCCC1(C)NC(=S)N2N1C(=S)NC2(C)CCCC (configuration not stated),-2,1,i,10,-3,0,-4,-16,
CC(C)Cn1cnc2c(SCc3ccc(Cl)cc3)nc(N)nc21,0,-13,·,16,·,·,·,-27,
Cc1cccc(C)c1Nc1c(-c2ccccn2)nc2ccccn12,2,-17,i,-50,-1,39,-16,-26,
Cc1ccc(NC(=O)CN2CCC(C(=O)c3ccc4c(c3)OCCO4)CC2)cc1,-4,-10,i,8,2,-4,-11,-6,
O=C(Nc1ccccc1C(=O)Nc1ccncc1)c1ccccc1,-5,1,i,-16,8,·,2,-12,
COc1cc(CCC(=O)NNC(=O)c2ccc(Cl)cc2)cc(OC)c1OC,0,3,i,-3,5,·,-1,-6,
CCOC(=O)c1ccc(N2C(=O)c3n[nH]c(C)c3C2c2ccccn2)cc1 (configuration not stated),-1,4,i,-4,2,-16,3,0,
C[C@H](NC(=O)CCCn1nnc2ccccc2c1=O)C(=O)O,0,4,i,-4,7,·,0,-29,
Cc1cccc(C(=O)NCC(=O)N2CCCC2)c1,6,-7,i,-9,2,·,-15,-7,
Cc1ccc(-n2c(NN)nc3ccccc3c2=O)c(C)c1,-2,-3,i,13,-6,2,-7,·,
COC(=O)[C@@H](Cc1c[nH]c2ccccc12)NC(=O)C1CCCN(S(=O)(=O)c2ccc(C)cc2)C1 (some centres not stated),-3,2,i,-4,-3,6,-3,12,
Cc1ccc(-c2noc(CCCC(=O)NC3CCCCC3)n2)cc1,0,-5,i,12,11,1,-5,-28,
CN(C)CCCN(C(=O)c1ccc(C(=O)c2ccccc2)cc1)c1nc2cc3c(cc2s1)OCO3,-12,-14,i,8,-4,17,-8,-3,
C(=N\Nc1nc(-c2ccccn2)nc2ccccc12)/c1ccccc1,·,·,i,·,3,83*,14,·,
COc1ccc(OC)c(NC(=O)CN(Cc2ccccc2)S(C)(=O)=O)c1,-3,2,i,1,13,-9,3,·,
O=C(NCCC1=CCCCC1)c1ccc2c(c1)N(Cc1ccccc1)C(=O)CS2,-9,-13,i,6,0,26,-2,2,
Cn1cccc1C(=O)OCC(=O)Nc1cccc(S(=O)(=O)N2CCOCC2)c1,2,3,i,5,38,-13,2,·,
CCCCCn1c(N)c(-c2nc3ccccc3s2)c2c([N+](=O)[O-])nn(CC)c(=O)c21,-19,-33,i,4,7,31,0,·,
CCOc1cc(/C=C2\SC(=S)N(NS(=O)(=O)c3ccccc3)C2=O)ccc1O,13,41,i,-1,-6,19,-11,-8,
O=C(c1cccs1)N1CCN(CCCc2ccccc2)CC1,4,2,i,42,-6,45,6,-2,
Cc1cc(NC(=O)c2c(C)noc2C)no1,2,4,i,8,-7,0,3,·,
N#C/C(=C\c1cc(O)c(O)c(O)c1)C(N)=O,-5,-1,i,-4,30*,19,54*,-28,eIF4H FP inh retest=81*;PABP polyA inh retest=62*
CC1CCN(C(=O)C2c3ccccc3C(=O)N3CCc4ccccc4C23)CC1 (configuration not stated),-2,0,i,3,3,-4,-4,-8,
CCN(C(=O)COC(=O)c1sccc1C)c1c(N)n(Cc2ccccc2)c(=O)[nH]c1=O,13,1,·,·,·,-4,·,-11,
CC1=C(C(=O)OC(C)C)C(C2CC=CCC2)NC(=O)N1 (configuration not stated),-4,-3,i,·,-5,5,-11,-3,
Cc1ccc(C(C)C)c(OCC(=O)NCC(c2cccs2)N2CCOCC2)c1 (configuration not stated),-6,-18,i,-16,·,-9,·,2,
O=C(Nc1ccccc1N1CCCC1)c1ccccc1Cl,2,4,i,-4,8,-16,-3,-13,
Cn1cnnc1SCc1ccc(C#N)cc1Cl,-3,1,·,·,4,-13,-8,-18,
CCC(NC(C)C)C(O)c1ccc(O)c(O)c1 (configuration not stated),2,9,i,·,3,-11,16,1&-7,
Cc1ccc2nc(C)c3c(c2c1)OC(C(C)(Cl)Br)C3 (configuration not stated),2,-22,i,34,-1,0,7,6,
COc1cc(S(=O)(=O)N2CCCCC2)ccc1NC(=O)Cc1ccccc1,4,-1,i,·,-2,-14,3,-9,
C[C@H](CO)N1C[C@H](C)[C@H](CN(C)S(=O)(=O)c2ccc3ccccc3c2)OCc2cnnn2CCCC1=O,3,3,·,15,·,·,·,-12&-9,
O=C(Nc1nnc(CC2=CCCCC2)s1)c1cccs1,3,-6,i,-42,2,-1,2,-19,
CC(=O)Nc1cccc(NC(=O)c2csc(C)c2)c1,2,5,i,13,13,-1,-5,-11,
CSCc1ccc(C(=O)NCCSc2ccc(Br)cc2)cc1,2,-1,i,-94,7,64,-6,-15,

# (further entries)
SMILES,MT1-MMP act inh,MT1-MMP act inh RFP,Rce1 inh,HIV Env fusion,PABP polyA inh,CSC inhib,eIF4H FP inh,UUG fidelity,others
Cn1c(Cn2nnc3ccccc32)nnc1SCC(=O)Nc1nccs1,3,3,i,27,86,-7,-1,-29,eIF4H FP inh retest=4;PABP polyA inh retest=0
CCc1ccc(-c2nc(CS(=O)CC(=O)NCCN3CCCCCC3)c(C)o2)cc1 (configuration not stated),-3,1,i,2,2,0,2,5,
Cc1cn([C@H]2C[C@H](O)[C@@H](CNCc3ccc(Oc4cc(-n5cccn5)ncn4)cc3)O2)c(=O)[nH]c1=O,-3,3,·,-11,·,·,·,-9,
CCC(C)c1c(O)nc(SCc2ccccc2)[nH]c1=O (configuration not stated),-1,1,i,-26,-1,-1,7,-9,
CCOc1ccc(-n2nc3c(SCCN4CCCC4)nnc(C)c3c2C)cc1,-4,7,i,1,1,-4,32,·,
CCC(C)c1ccc(NC(=O)c2cccnc2)cc1 (configuration not stated),-1,-1,i,-89,-2,-6,-6,-5,
O=C(COC(=O)CCc1ccc(S(=O)(=O)N2CCOCC2)cc1)Nc1ncc(C(F)(F)F)cc1Cl,-5,0,i,-74,-2,-2,11,4,
CCCNC(=O)c1cc(C2CCCN(C(=O)c3cc(C(C)(C)C)nn3C)C2)on1 (configuration not stated),2,-3,·,20,·,·,·,1,
CCC(C)Sc1ccc(-c2nc3cnccn3c2NC2CCCCC2)cc1 (configuration not stated),-29&-21,-12&-5,i,12&9,·,126*,·,-36,
Cc1cccnc1NC(=O)c1ccc(Cl)c(S(=O)(=O)N2CCCCCC2)c1,2,-7,i,·,-12,-2,-6,-7,
Cc1cc(OCCNCCO)cc(C)c1Cl,2,5,i,·,-12,0,2,3,
O=C(COc1nsnc1N1CCOCC1)Nc1ccccc1Cl,0,1,i,2,0,0,-6,-13,
O=C1CCOc2cc(OCc3ccccc3)ccc21,-1,1,i,-256,-4,0,10,-52,
CC(=O)Nc1cccc(-c2ccnc3c2CC(C(=O)NCCC(F)(F)F)O3)c1 (configuration not stated),4,-7,·,-23,·,·,·,0,
